Screens (PubChem BioAssay)
NPYLR7 agonist = agonists of mosquito NPYLR7 receptor, primary screen, cell-based, Aedes aegypti, calcium fluorescence, mosquito biting behavior; Aedes aegypti neuropeptide Y-like receptor 7 (NPYLR7); HEK293T NPYLR7/Galpha15, GCaMP6s calcium fluorescence; activation, % at 10 µM; 270,000 tested, 0.15% active; in the data active = activation above about 40%;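 also: 0% = vehicle and 100% = reference agonist at the receptor; some compounds past the cut are filed as inactive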
NPYLR7 agonist max-min = second read-out of NPYLR7 agonist, no call of its own (marks repeat the call); activation, %; measured here: Max-Min RFU normalised activation; some inactives read as strong as hits;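 span of the calcium signal over five minutes; 0% = vehicle and 100% = native peptide agonist; compound fluorescence can raise it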
An asterisk follows results filed as active. This is a subset (hit frequency here may not be typical).

SMILES | NPYLR7 agonist | NPYLR7 agonist max-min
NC1=NC(c2cccnc2)n2c(nc3ccccc32)N1 (configuration not stated) | 5 | 2
COc1cccc(-c2cnc(-c3ccc(CNC(=O)c4ccc(S(=O)(=O)F)cc4)cc3)[nH]2)c1 | -14 | -4
Cc1c(C(=O)NC2CCc3ccccc32)ncn1Cc1ccc(Cl)cc1 (configuration not stated) | 1 | 1
CCCC(C)n1[nH]c(=O)c2c1NC(=O)CSC2c1cccc([N+](=O)[O-])c1 (configuration not stated) | -14 | -19
CCCCCn1c(=O)c(C(=O)Nc2nccs2)c(O)c2ccccc21 | -4 | -9
O=C(Nc1ccccc1C(F)(F)F)c1cccn(Cc2ccc(Br)cc2)c1=O | 17 | 11
O=c1c2c3c(sc2nc(SCCS(=O)(=O)F)n1-c1ccccc1)CCCC3 | -4 | -11
O=P(C=C(Cl)c1ccccc1)(C=C(Cl)c1ccccc1)Nc1ccc(F)cc1 | 0 | 11
Cc1cc(C)c(CNCC(O)c2ccc(OC(C)C)cc2)c(C)c1 (configuration not stated) | 3 | 0
O=C(c1ccccn1)C1CCCN(C2CCC3(CCNCC3)CC2)C1 (configuration not stated) | 2 | 2

Whole records from above.
COc1cccc(-c2cnc(-c3ccc(CNC(=O)c4ccc(S(=O)(=O)F)cc4)cc3)[nH]2)c1 in the list: NPYLR7 agonist = -14; NPYLR7 agonist max-min = -4
O=c1c2c3c(sc2nc(SCCS(=O)(=O)F)n1-c1ccccc1)CCCC3 in the list: NPYLR7 agonist = -4; NPYLR7 agonist max-min = -11

Reformatted as a markdown table: entries from further up.
| Molecule | NPYLR7 agonist | NPYLR7 agonist max-min |
| --- | --- | --- |
| O=C(Nc1ccccc1C(F)(F)F)c1cccn(Cc2ccc(Br)cc2)c1=O | 17 | 11 |
| COc1cccc(-c2cnc(-c3ccc(CNC(=O)c4ccc(S(=O)(=O)F)cc4)cc3)[nH]2)c1 | -14 | -4 |
